Compound activity as filed in PubChem BioAssay.
VACV Venus inh: inhibitors of vaccinia virus (Venus reporter). AID 720580. Potency, µM (series often up to 36.5 µM), inactives show top-dose activity change, negative = inhibition, usual class: inhibitors. 330,000 tested, 0.46% active. Vaccinia virus Venus reporter expression, fluorescence; active means well fitted inhibition curve with a large enough effect; inconclusive means small, poorly fitted or top-dose-only effect; inactive means no such curve, though single readings can be large or run the other way; tested in A549 cells; also: nearly all actives have a fitted effect of over 30% in size; inactives centre near -10
Vaccinia mCherry: vaccinia inhibition (mCherry reporter). Vaccinia virus mCherry reporter infection, fluorescence; about a quarter of the inactives have no number. Potency, µM (titrated, usually from 36.5 µM), inactives show top-dose activity change, negative = inhibition, most hits filed as inhibitors. 310,000 tested, 0.63% active; active = well fitted inhibition curve with a large enough effect; inconclusive = small, poorly fitted or top-dose-only effect; inactive = no such curve, though single readings can be large or run the other way; tested in A549 cells; also: nearly all actives have a fitted effect of over 35% in size; inactives centre near -10
* hit, by the source's call; i = inactive; ? = inconclusive; . = no result given; [ ] = another dose, or the depositor's remark. % is scaled to controls: 0 for no effect and ±100 for the full control effect; potency is read from the fitted curve at half-maximal effect.

O=C(CSCC(=O)N1CCCc2ccccc21)Nc1nc(-c2ccccc2)cs1
  VACV Venus inh = -25%	Vaccinia mCherry = ?
COc1cccc(O)c1CN1CCC(C(=O)Nc2ccc(-c3cccc(C)c3)cc2)CC1
  VACV Venus inh = ?	Vaccinia mCherry = -21%
Cc1nc2ncccn2c1-c1csc(Nc2ccccc2)n1
  VACV Venus inh = ?	Vaccinia mCherry = -24%
CCOc1ccc(CNC(=O)c2cnc3sc(N4CCOCC4)nn3c2=O)cc1OC
  VACV Venus inh = -12%	Vaccinia mCherry = -13%
C=C(C)COc1ccc(-c2ncncc2-c2ccccc2)c(O)c1
  VACV Venus inh = -9%	Vaccinia mCherry = -12%
Cc1noc(NS(=O)(=O)c2ccc(NC(=O)/C=C/c3ccc(C(C)C)cc3)cc2)c1C
  VACV Venus inh = 0%	Vaccinia mCherry = -7%
O=C(CSc1nc(NS(=O)(=O)c2ccccc2)cc(=O)[nH]1)Nc1ccccc1Cl
  VACV Venus inh = -2%	Vaccinia mCherry = -1%
O=C(N/N=C/c1ccc([N+](=O)[O-])cc1)C(=O)N1CCCC1
  VACV Venus inh = -7%	Vaccinia mCherry = i
CCOc1ccc(/C=C/c2nc(C#N)c(NC(C)CC)o2)cc1 (centres undefined)
  VACV Venus inh = -17%	Vaccinia mCherry = -21%
C[C@H](NC(=O)c1nc[nH]c1C(=O)NCCCCCN)C(=O)OC(C)(C)C
  VACV Venus inh = -2%	Vaccinia mCherry = -14%

Full records, looked up by structure:
CCOc1ccc(/C=C/c2nc(C#N)c(NC(C)CC)o2)cc1 (centres undefined) in the list: VACV Venus inh = -17%; Vaccinia mCherry = -21%
C=C(C)COc1ccc(-c2ncncc2-c2ccccc2)c(O)c1 in the list: VACV Venus inh = -9%; Vaccinia mCherry = -12%

(continued)
CCOc1ccc(NC(=O)CCc2c(C)nn(-c3ccc(N4CCCC4)nn3)c2C)cc1
  VACV Venus inh = -2%	Vaccinia mCherry = 1%
CCN(CC)c1ccc(/C=N/N2CCN(Cc3ccc(Cl)cc3)CC2)c(O)c1
  VACV Venus inh = -7%	Vaccinia mCherry = ?
Cc1nc(-c2nnc(SCC(=O)Nc3ccc(Cl)cc3)n2C)cs1
  VACV Venus inh = -11%	Vaccinia mCherry = -14%
CCOc1ccc(-n2c(SCC(=O)NCc3ccco3)nnc2-c2c[nH]c3ccccc23)cc1
  VACV Venus inh = ?	Vaccinia mCherry = -26%
COC(=O)C1CCCCN1Cc1ccc2c(c1)CN(C(=O)c1cc(C)nc3cc(F)ccc13)CCO2 (centres undefined)
  VACV Venus inh = -2%	Vaccinia mCherry = -8%
O=C(/C=C/c1ccco1)Nc1cccc(NC(=O)/C=C/c2ccco2)n1
  VACV Venus inh = -5%	Vaccinia mCherry = i
CCN1C(=NCCN2CCOCC2)N[C@@H](c2ccccc2)C(C(=O)OC)=C1C
  VACV Venus inh = -6%	Vaccinia mCherry = -12%
COc1ccc(C(=O)NC2CCc3ccccc32)cc1OC1CCN(C(C)=O)CC1 (centres undefined)
  VACV Venus inh = -9%	Vaccinia mCherry = i
COc1ccc(NS(=O)(=O)c2ccc(NS(=O)(=O)c3cccc(C(=O)O)c3)cc2)cc1
  VACV Venus inh = 1%	Vaccinia mCherry = 0%
O=C(Nc1ccon1)c1nc[nH]c1C(=O)N1CCN(c2ccccc2)CC1
  VACV Venus inh = -7%	Vaccinia mCherry = i

CCOc1ccc(C2c3c(-c4cc(C)ccc4O)n[nH]c3C(=O)N2Cc2cccnc2)cc1OCC (centres undefined)
  VACV Venus inh = -1%	Vaccinia mCherry = -8%
COc1ccc(N2CC(C(=O)N3CCN(c4ccccc4F)CC3)CC2=O)cc1 (centres undefined)
  VACV Venus inh = 1%	Vaccinia mCherry = 2%
CCNC(=O)C1(C)CCCN(C(=O)c2cccc(C)c2C)C1 (centres undefined)
  VACV Venus inh = -6%	Vaccinia mCherry = 21%
Cc1ccc(S(=O)(=O)N(CC(=O)Nc2ccc(C)c(Cl)c2)C(=O)N2CCN(C)CC2)cc1
  VACV Venus inh = -3%	Vaccinia mCherry = -13%
Cn1c(Nc2ccc(F)cc2)nc2cc(-c3ccsc3)sc2c1=O
  VACV Venus inh = -8%	Vaccinia mCherry = 18%
O=C(CSc1ncnc2c1oc1ccccc12)NCC1CCCO1 (centres undefined)
  VACV Venus inh = -29%	Vaccinia mCherry = ?
Cc1ccc(-n2ncc3c(N4CCCCCC4)ncnc32)cc1
  VACV Venus inh = 6%	Vaccinia mCherry = -8%
CCn1c(=O)c2cc(C(=O)NCCOC)sc2c2ccccc21
  VACV Venus inh = -18%	Vaccinia mCherry = -3%
CC1CN(c2oc(-c3ccco3)nc2C#N)CC(C)O1 (centres undefined)
  VACV Venus inh = -14%	Vaccinia mCherry = .
CCOc1ccc2nc(SCC(=O)NCc3ccccc3)[nH]c2c1
  VACV Venus inh = -9%	Vaccinia mCherry = -2%

CC(C)COC(=O)N(C)C[C@@H]1OCc2cn(nn2)CCCC(=O)N([C@@H](C)CO)C[C@H]1C
  VACV Venus inh = -10%	Vaccinia mCherry = -14%
CCOc1ccc(C(CC(=O)O)NC(=O)C(CC)c2ccccc2)cc1 (centres undefined)
  VACV Venus inh = -9%	Vaccinia mCherry = -13%
O=C(CCCCn1c(=O)[nH]c2ccsc2c1=O)NCc1ccc2c(c1)OCO2
  VACV Venus inh = -11%	Vaccinia mCherry = -8%
Cc1ccc2nc(N3C(=O)C(O)=C(C(=O)c4cc5ccccc5o4)C3c3cccs3)sc2c1 (centres undefined)
  VACV Venus inh = 9%	Vaccinia mCherry = -8%
O=C(O)c1cc(NS(=O)(=O)c2ccc(N3CCOCC3)c([N+](=O)[O-])c2)cc(C(=O)O)c1
  VACV Venus inh = -12%	Vaccinia mCherry = i
O=C(CC1NCCNC1=O)Nc1ccc(F)c(Cl)c1 (centres undefined)
  VACV Venus inh = -2%	Vaccinia mCherry = -7%
CCCNC(=O)c1cc(C2CCCCN2S(=O)(=O)c2ccc(F)cc2F)on1 (centres undefined)
  VACV Venus inh = -4%	Vaccinia mCherry = 5%
c1ccc(-n2c(-c3ccco3)nnc2-c2ccco2)cc1
  VACV Venus inh = -10%	Vaccinia mCherry = .
CCOc1cccc(CNCCc2c(C)[nH]c3ccc(OC(F)(F)F)cc23)c1O
  VACV Venus inh = 10µM*	Vaccinia mCherry = ?
CC(=O)Nc1ccc(NC(=O)C2CCN(C(=O)C3CC(=O)N(c4ccc(C)cc4)C3)CC2)cc1 (centres undefined)
  VACV Venus inh = 0%	Vaccinia mCherry = i

Random excerpt: 3 entries already listed
CCOc1ccc(C(CC(=O)O)NC(=O)C(CC)c2ccccc2)cc1 (centres undefined)
  VACV Venus inh = -9%	Vaccinia mCherry = -13%
CCCNC(=O)c1cc(C2CCCCN2S(=O)(=O)c2ccc(F)cc2F)on1 (centres undefined)
  VACV Venus inh = -4%	Vaccinia mCherry = 5%
Cc1ccc2nc(N3C(=O)C(O)=C(C(=O)c4cc5ccccc5o4)C3c3cccs3)sc2c1 (centres undefined)
  VACV Venus inh = 9%	Vaccinia mCherry = -8%

Other structures follow:
Cc1ccc(C)c(C(=O)CN2Cc3ccccc3C2=O)c1
  VACV Venus inh = -16%	Vaccinia mCherry = -1%
CCCCn1c(N)c(N(CCC(C)C)C(=O)c2ccccc2-n2cnnn2)c(=O)[nH]c1=O
  VACV Venus inh = -14%	Vaccinia mCherry = i
CN(CCC#N)CC(=O)Nc1ccc(NC(=O)CN(C)CCC#N)cc1
  VACV Venus inh = 2%	Vaccinia mCherry = -13%
CCC1(c2ccccc2)C(=O)NC(=S)NC1=O
  VACV Venus inh = -6%	Vaccinia mCherry = i
COC(=O)C1=CNC=C(C(=O)OC)C1c1ccccc1Cl
  VACV Venus inh = 23%	Vaccinia mCherry = 13%
CN(c1ccc(F)cc1)S(=O)(=O)N1CCCC(C(=O)NCc2ccccc2Cl)C1 (centres undefined)
  VACV Venus inh = -5%	Vaccinia mCherry = -12%
O=C(Nc1cccc(Cl)c1)c1ccc2c(c1)CCN2S(=O)(=O)c1ccccc1
  VACV Venus inh = -17%	Vaccinia mCherry = -13%
CN(C(=O)CSc1nc2ccccc2o1)C1CCCCC1
  VACV Venus inh = -6%	Vaccinia mCherry = -11%
CCOC(=O)N1CCC(c2cc(=O)n3[nH]c(C)c(-c4ccc(F)cc4)c3n2)CC1
  VACV Venus inh = ?	Vaccinia mCherry = ?
Cn1c(SCC(=O)NCc2ccco2)nnc1-c1ccc(S(=O)(=O)N2CCOCC2)cc1
  VACV Venus inh = -5%	Vaccinia mCherry = ?

As entered above.
Result for O=C(Nc1cccc(Cl)c1)c1ccc2c(c1)CCN2S(=O)(=O)c1ccccc1 in Vaccinia mCherry: -13%
Result for CN(CCC#N)CC(=O)Nc1ccc(NC(=O)CN(C)CCC#N)cc1 in VACV Venus inh: 2%
Result for CCC1(c2ccccc2)C(=O)NC(=S)NC1=O in VACV Venus inh: -6%
Result for Cn1c(SCC(=O)NCc2ccco2)nnc1-c1ccc(S(=O)(=O)N2CCOCC2)cc1 in VACV Venus inh: -5%

Other compounds follow.
CCOc1ccc(/C(O)=C2/C(=O)C(=O)N(c3cc(C)on3)C2c2ccc(C(=O)OC)cc2)cc1 (centres undefined)
  VACV Venus inh = -18%	Vaccinia mCherry = -8%
CCOC(=O)C(=O)Nc1ccc([N+](=O)[O-])cc1OC
  VACV Venus inh = -6%	Vaccinia mCherry = -12%
NC(=O)c1cccnc1Oc1ccc(Cl)cc1
  VACV Venus inh = -28%[7.34 µM]	Vaccinia mCherry = -13%[7.34 µM]
O=C(CSc1nnc(Cc2ccccc2)c(=O)[nH]1)Nc1ccccc1
  VACV Venus inh = -18%	Vaccinia mCherry = -13%
O=C(NCCc1csc2nc(-c3ccc(F)cc3)nn12)c1ccco1
  VACV Venus inh = -9%	Vaccinia mCherry = -3%
COc1ccccc1CNC(=O)c1cn(C)c2ccc(S(=O)(=O)N(C)C3CCCCC3)cc2c1=O
  VACV Venus inh = -13%	Vaccinia mCherry = -26%
COc1ccccc1N1CCN(C(=O)c2cc3c(=O)n(Cc4cccnc4)ccc3nc2C)CC1
  VACV Venus inh = -7%	Vaccinia mCherry = -5%
COc1ccccc1-c1nnc(SCC(N)=O)o1
  VACV Venus inh = -2%	Vaccinia mCherry = 1%
Cc1ccc(Cc2cnc(N3C(=N)SC(C)C3=O)s2)cc1 (centres undefined)
  VACV Venus inh = -25%	Vaccinia mCherry = -33%
CCCN(CCC)c1nc(N)nc(C#N)n1
  VACV Venus inh = -6%	Vaccinia mCherry = 14%

O=C(C1CCN(S(=O)(=O)c2ccccc2F)CC1)N1CCCC1
  VACV Venus inh = -14%	Vaccinia mCherry = -14%
Cc1ccccc1NC(=S)NCc1ccc2c(c1)OCO2
  VACV Venus inh = -15%	Vaccinia mCherry = -6%
O=C(COCc1cc(-c2cccs2)on1)Nc1ccc(OC(F)(F)F)cc1
  VACV Venus inh = -5%[7.34 µM]	Vaccinia mCherry = i[7.34 µM]
CC(=O)NCCC(=O)Nc1cccc(S(=O)(=O)N(C)c2ccccc2)c1
  VACV Venus inh = -18%	Vaccinia mCherry = -27%

Compounds above that contain a COOH group (three):
COc1ccc(NS(=O)(=O)c2ccc(NS(=O)(=O)c3cccc(C(=O)O)c3)cc2)cc1
  VACV Venus inh = 1%	Vaccinia mCherry = 0%
CCOc1ccc(C(CC(=O)O)NC(=O)C(CC)c2ccccc2)cc1 (centres undefined)
  VACV Venus inh = -9%	Vaccinia mCherry = -13%
O=C(O)c1cc(NS(=O)(=O)c2ccc(N3CCOCC3)c([N+](=O)[O-])c2)cc(C(=O)O)c1
  VACV Venus inh = -12%	Vaccinia mCherry = i
